Screening data as filed in PubChem.
Marburg entry inh: Marburg virus entry inhibition | Marburg virus pseudotyped entry inhibition, cell reporter; control for the full effect not named in the record; about a third of the inactives were read at about 46 µM | Potency, µM (series often up to 37.8 µM), inactives show top-dose activity change, negative = inhibition, most hits filed as inhibitors | actives 1.8% (n = 300,000) | AID 540276; active = well fitted inhibition curve with a large enough effect; inconclusive = small, poorly fitted or top-dose-only effect, or effect the other way; inactive = flat fitted curve, though single readings scatter; tested in HEK293 cells; about a fifth of its hits are not listed in these tables; also: % is scaled to controls: 0 for no effect and ±100 for the full control effect; luciferase read-out
SARS PLP yeast: blocks SARS-CoV papain-like protease in a yeast assay. S. cerevisiae expressing SARS-CoV PLpro, growth rescue; control for the full effect not named in the record. Potency, µM (highest dose often 32.9 µM), without a hit: at the highest dose activity, positive = growth rescue. AID 485353. actives 0.19% (n = 330,000); also: 0% is about no effect; nearly all actives have a fitted effect of over 55% in size; growth read by luminescence after 48 h
Cruzain noTriton: cruzain (T. cruzi) inhibition without detergent. Potency, µM, inactives show max response, negative = inhibition, usual class: inhibitors. purified cruzain, Z-FR-AMC fluorescence, no detergent. actives 2.3% (n = 200,000). P25779; active = well fitted curve in the direction sought with a large enough effect; inconclusive = small, poorly fitted or top-dose-only effect, or another doubt; inactive = no such curve, though single readings can be large; an effect the other way counts as inactive or inconclusive;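 also: plate controls were enzyme without inhibitor for no effect and buffer without enzyme for full effect; nearly all actives have a fitted effect of over 40% in size; top concentration of the series not given in the record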
Target sequence (P25779 123-467 limits assumed): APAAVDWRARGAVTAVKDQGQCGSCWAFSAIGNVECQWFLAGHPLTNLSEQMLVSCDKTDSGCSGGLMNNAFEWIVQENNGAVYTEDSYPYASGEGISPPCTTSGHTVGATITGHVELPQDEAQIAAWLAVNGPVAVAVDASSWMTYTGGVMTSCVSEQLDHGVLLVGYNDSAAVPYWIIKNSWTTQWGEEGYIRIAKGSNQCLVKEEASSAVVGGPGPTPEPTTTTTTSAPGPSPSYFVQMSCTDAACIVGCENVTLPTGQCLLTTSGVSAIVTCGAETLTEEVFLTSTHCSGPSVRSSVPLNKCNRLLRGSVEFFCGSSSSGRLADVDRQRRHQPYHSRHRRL
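Purified cruzain at 1.5 nM, pre-incubated 15 min with compound at room temperature in 100 mM sodium acetate pH 5.5, 5 mM DTT, 0.00005% Triton X-100. Reaction started with 2 uM Z-FR-AMC; AMC fluorescence increase over 60 s gives rate.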
NS1 inh: influenza NS1 inhibition; AID 2326; S. cerevisiae slowed by influenza A NS1, growth recovery by OD600; Potency, µM (titrated, usually from 46.1 µM), inactives show top-dose activity, positive = more growth; actives 0.4% (n = 270,000); also: actives are rising curves; nearly all actives have a fitted effect of over 50% in size
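Compounds were scored for reversing the slow growth caused by influenza A NS1 in S. cerevisiae, measured by optical density at 600 nm. Assay medium contained 2% galactose at pH 6.0; NS1-free yeast of the same strain were the positive control.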
Cruzain inh Det: cruzain (T. cruzi) inhibition with detergent; purified cruzain, Z-FR-AMC fluorescence, 0.01% Triton; AID 1478; actives 0.43% (n = 200,000); Potency, µM, for the others: max response, negative = inhibition, usual class: inhibitors; active = well fitted curve in the direction sought with a large enough effect; inconclusive = small, poorly fitted or top-dose-only effect, or another doubt; inactive = no such curve, though single readings can be large; an effect the other way counts as inactive or inconclusive;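 also: plate controls were neutral wells for no effect and buffer without enzyme for full effect; nearly all actives have a fitted effect of over 40% in size; top concentration of the series not given in the record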
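Steps: dispense cruzain (1.5 nM final) in acetate buffer pH 5.5 with DTT and 0.01% Triton X-100; pin-transfer compounds; incubate 15 min RT; add Z-FR-AMC (2 uM final); read fluorescence every 30 s, using the 60 s intensity change.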
Lassa entry inh: inhibitors of Lassa virus binding or cell entry | AID 540256 | actives 1.2% (n = 300,000) | Potency, µM (series often up to 37.9 µM), for the others: at the highest dose activity change, negative = inhibition, most hits filed as inhibitors | Lassa virus pseudotype entry inhibition, cell reporter; control for the full effect not named in the record; active means well fitted inhibition curve with a large enough effect; inconclusive means small, poorly fitted or top-dose-only effect, or effect the other way; inactive means flat fitted curve, though single readings scatter; tested in HEK293 cells; also: % is scaled to controls: 0 for no effect and ±100 for the full control effect; nearly all actives have a fitted effect of over 50% in size; luciferase read-out
RE007 growth inh: less growth of the S. pombe RE007 Vpr strain; S. pombe RE007 Vpr strain, BacTiter-Glo ATP luminescence, 24 h; control for the full effect not named in the record; Potency, µM (series often up to 92.2 µM), without a hit: top-dose activity change, negative = less growth; actives 0.21% (n = 360,000); active = well fitted falling curve with a large enough effect; inconclusive = small, poorly fitted or top-dose-only effect; inactive = no such curve, though single readings can be large or run the other way;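 also: % is scaled to controls: 0 for no effect and ±100 for the full control effect; nearly all actives have a fitted effect of over 50% in size; the assay follows cell death caused by Vpr and the record does not say whether a fall means rescue or toxicity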
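Fission yeast RE007 carrying one integrated HIV-1 vpr copy, seeded at OD 0.01 in PMG+AL medium with 23 nL pinned compound. Grown 24 h at 30 degrees; viability read by BacTiter-Glo luminescence after 5 min.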
StopGo reporter: lowers the luciferase signal of an FMDV 2A StopGo reporter; human cells with a luciferase reporter of 2A StopGo recoding; control for the full effect not named in the record; AID 1159524; Potency, µM (doses to about 57.9 µM), for inactives: at the top dose signal change, negative = less light; actives 1.2% (n = 410,000); active = well fitted falling curve with a large enough effect; inconclusive = small, poorly fitted or top-dose-only effect; inactive = no such curve, though single readings can be large or run the other way; tested in HEK293T cells; also: % is scaled to controls: 0 for no effect and ±100 for the full control effect; nearly all actives have a fitted effect of over 45% in size; luciferase light after 4 h
* hit, by the source's call; ? = inconclusive; . = not tested or not shown; & = joins results of further samples; [ ] = dose if it differs, or a comment. Unless noted, calls follow the shape of the dose curve; as a rule, active means well fitted rising curve with a large enough effect; inconclusive means small, poorly fitted or top-dose-only effect; inactive means no such curve, though single readings can be large or run the other way. Potency is read from the fitted curve at half-maximal effect. This is a random part of the collection. About 4.8% of those tested had a hit in this group.

SMILES	Marburg entry inh	SARS PLP yeast	Cruzain noTriton	NS1 inh	Cruzain inh Det	Lassa entry inh	RE007 growth inh	StopGo reporter
COCCCn1c(=O)c2ccccc2n(CC(=O)NC2CCCC2)c1=O	2.2%[46.1 µM]	0.4%	.	2.2%	.	24.4%	18.0%	-10.8%
Cc1cccc(C(=O)OC2CCCN(C)C2)c1C (stereo not given)	?	-1.5%	.	4.8%	.	12.5%	-14.2%	0.7%
Cc1ccc(C(=O)COC(=O)CNC(=O)CN2C(=O)c3ccccc3C2=O)cc1	?	1.8%	-1.5%	2.5%	0.0%	0.9%	25.6%	-12.7%
Cn1c2ccccc2c2cnn(CC(=O)Nc3ccccc3C(F)(F)F)c(=O)c21	5.4%[46.1 µM]	.	3.0%	.	-2.6%	?	.	8.3%
Nc1c(-c2n[nH]c(=S)n2-c2ccc(Cl)cc2Cl)cnn1-c1ccccc1	?	-4.4%	.	0.4%	.	3.5%	14.2%	2.0%
Cc1onc(-c2ccc(Cl)cc2)c1-c1ccnc(SCC(=O)Nc2cc(Cl)cc(Cl)c2)n1	7.94µM*	0.3%	.	13.6%	.	?	-14.8%	-16.0%
C=CCn1c(SCC(=O)c2ccc(CNC(C)=O)o2)nc2ccccc2c1=O	-19.8%	16.0%	15.6%	26.3%	-4.4%	6.2%	-1.6%	-25.4%
Cc1cccc(C)c1OCC(=O)N(Cc1ccc(N(C)C)cc1)C1CCS(=O)(=O)C1 (stereo not given)	.	0.8%	.	5.3%	.	.	-5.9%	?
CCN(CC(=O)Nc1c(F)cccc1F)C(=O)c1ccc2c(c1)OCCO2	-15.3%	.	.	.	.	-6.5%	-0.3%	6.7%
CCOC(=O)c1ccc(N2C(=O)C(O)=C(C(C)=O)C2c2ccc([N+](=O)[O-])cc2)cc1 (stereo not given)	.	6.9%	.	26.7%	.	.	3.3%	1.4%
Cc1ccc(C)n1NC(=O)c1ccc(Cl)cc1	-16.1%[46.1 µM]	-7.4%	-3.9%	9.8%	1.2%	-1.3%	21.1%	-12.7%
CCOC(=O)c1c(NC(=O)CC)sc(C(C)=O)c1C	-2.4%[46.1 µM]	-0.3%	-6.6%	-10.3%	-2.9%	12.6%	?	1.6%
CCc1cc2c(C)ccc(C)c2nc1SCC(=O)Nc1c(C)[nH]c(=O)[nH]c1=O	33.6%	14.8%	1.2%	?	1.5%	5.7%	-3.4%	-11.3%
CC(C)n1cc([C@@H]2C[C@H]3CN(Cc4cccc(Cl)c4)C(=O)[C@]34CCCN24)cn1	?	0.0%	.	9.4%	.	-10.7%	7.8%	-7.1%
Cc1nc(SCc2nc3ccccc3[nH]2)c2oc3ccccc3c2n1	?	-14.2%	15.8µM*	-171.7%	?	-7.2%	-24.7%	?
CC(C)OC(=O)C(C)Nc1ccc(F)c(Cl)c1 (stereo not given)	-4.1%	2.9%	.	0.2%	.	-14.7%	0.7%	-11.7%
COc1cc(C)ccc1OCC(=O)OCC(=O)c1[nH]c(C)c(C(C)=O)c1C	18.9%	?	.	.	.	1.5%	-3.1%	-21.9%
CCCCNC(=O)c1onc(CSc2ccc(C(C)C)cc2)c1C(=O)O	.	-22.7%	22.8%	-13.0%	-2.8%	.	-1.6%	-20.0%
O=C(O)C1CC(=O)N(c2ccc(OCc3ccc(Cl)cc3Cl)cc2)C1 (stereo not given)	-4.0%	-9.0%	?	13.9%	-4.1%	-13.3%	6.6%	-6.4%
COc1ccc(/C=C2\SC(=S)N(CC(=O)OCC(=O)Nc3cc(Cl)cc(Cl)c3)C2=O)cc1	.	-2.2%	.	1.5%	.	.	0.5%	4.9%
COc1nc(C)nc2c1ccc1ccccc12	10.4%	22.5%	-6.8%	8.9%	-5.3%	17.7%	-13.0%	44.9%[activator]
NS(=O)(=O)c1cc2c(cc1Cl)NC(C1C[C@H]3C=C[C@@H]1C3)NS2(=O)=O (stereo not given in full)	1.7%	-6.6%	4.4%	-8.1%	0.3%	?	-4.6%[18.4 µM]	-4.5%
CCOc1ccc(OCCC(=O)N(CC)CC(=O)Nc2ccccc2C(F)(F)F)cc1	-2.8%	-7.6%	.	.	.	3.1%	-5.5%	-17.0%
O=C(N/N=C/c1ccc(-c2cccc([N+](=O)[O-])c2)o1)c1ccccc1O	?	-1.2%	.	.	.	?	-6.6%	6.7%

2 consecutive entries from above, quoted:
SMILES	Marburg entry inh	SARS PLP yeast	Cruzain noTriton	NS1 inh	Cruzain inh Det	Lassa entry inh	RE007 growth inh	StopGo reporter
CCOc1ccc(OCCC(=O)N(CC)CC(=O)Nc2ccccc2C(F)(F)F)cc1	-2.8%	-7.6%	.	.	.	3.1%	-5.5%	-17.0%
O=C(N/N=C/c1ccc(-c2cccc([N+](=O)[O-])c2)o1)c1ccccc1O	?	-1.2%	.	.	.	?	-6.6%	6.7%

Profiles, quoted from the list. Screens in order: Marburg entry inh | SARS PLP yeast | Cruzain noTriton | NS1 inh | Cruzain inh Det | Lassa entry inh | RE007 growth inh | StopGo reporter
COc1ccc(/C=C2\SC(=S)N(CC(=O)OCC(=O)Nc3cc(Cl)cc(Cl)c3)C2=O)cc1 is entered as . | -2.2% | . | 1.5% | . | . | 0.5% | 4.9%
CCOc1ccc(OCCC(=O)N(CC)CC(=O)Nc2ccccc2C(F)(F)F)cc1 is entered as -2.8% | -7.6% | . | . | . | 3.1% | -5.5% | -17.0%

Carrying on:
SMILES	Marburg entry inh	SARS PLP yeast	Cruzain noTriton	NS1 inh	Cruzain inh Det	Lassa entry inh	RE007 growth inh	StopGo reporter
CCOC(=O)c1cc(-c2ccc(F)cc2)n(CC(=O)NCc2ccc(OC)cc2)c1C	.	.	-7.7%	.	-0.3%	?	.	15.4%
O=C(COc1coc(CN2CCN(c3ccccc3)CC2)cc1=O)Nc1ccc(F)cc1	17.3%	-0.2%	.	.	.	-21.0%	0.6%	-21.5%
COc1ccc(C(CC(=O)N2CCOCC2)c2c(OC)cc(OC)c3ccc(=O)oc23)cc1 (stereo not given)	.	1.5%	.	-6.3%	.	.	12.7%	-3.0%
CNC(=S)NCc1ccc2[nH]c(C)cc2c1	8.9%	-1.2%	.	.	.	-6.1%	-11.3%	-2.6%
Nc1cc(=O)nc(SCC(=O)Nc2ccccc2)n1CCc1ccccc1	-0.8%[46.1 µM]	.	-17.4%	.	-10.8%	-10.0%[46.1 µM]	.	1.7%
O=C(/C=C/Nc1ccc(F)cc1)c1ccc(Br)cc1	.	1.4%	.	-6.6%	.	.	-15.4%	18.5%
O=C(NCCc1ccc(Cl)cc1)C1CCC(=O)N1Cc1ccccc1Cl (stereo not given)	-9.5%	-2.4%	25.4%	-2.2%	1.9%	10.7%	19.3%	16.5%
COc1cc(OC)c(NC(=O)Cc2ccc(OC)c(S(=O)(=O)N3CCOCC3)c2)cc1Cl	-11.5%	7.2%	.	-6.7%	.	-2.2%	9.6%	-20.3%
O=C(CCS(=O)(=O)c1ccc(Br)s1)Nc1c(F)cccc1F	15.7%[46.1 µM]	.	-4.8%	.	-0.3%	-21.3%[46.1 µM]	.	37.5%[activator]
CCOC(=O)COc1ccc2c3c(c(=O)oc2c1)CCCC3	-2.1%[46.1 µM]	-10.4%	.	-13.5%	.	0.5%[46.1 µM]	?	-2.3%
Cc1ccc(C)c(-c2cc(C(=O)Nc3cccnc3)c3ccccc3n2)c1	11.2µM*	-5.9%	.	-52.4%	.	-6.2%	15.2%	0.0%
CN(C(=O)c1c[nH]c(=O)cc1C(F)(F)F)c1ccc(Cl)c(Cl)c1	?	-0.5%	.	0.0%	.	-15.2%[46.1 µM]	5.3%	-15.7%
COC(=O)c1ccc(NC(=O)CN2C(=O)CC(C)S(=O)(=O)c3ccccc32)cc1 (stereo not given)	9.9%[46.1 µM]	.	.	1.6%	.	-3.7%[46.1 µM]	1.4%	-5.6%
COC(=O)c1ccc(Cl)cc1NC(=O)NCCc1c(C)nn(C)c1C	.	.	-0.8%	.	-0.4%	12.3%[46.1 µM]	.	5.3%
CCOC(=O)C1=NN(c2ccc(Cl)cc2)C(c2ccccc2)CC1=O (stereo not given)	-5.8%	3.9%	-21.9%	-4.0%	-11.6%	13.3%	25.4%	-4.6%
Cc1ccc(-c2ccc(=O)n(CC(=O)NCCC(C)C)n2)cc1	.	-3.8%	.	-1.9%	.	.	-6.0%	-14.8%
COc1cccc(-c2c(C(=O)N/N=C/c3ccsc3)nnn2-c2nonc2N)c1	.	-1.6%	.	18.0%	.	.	-3.9%	-7.4%
C=CCOc1ccc(CNc2nn[nH]n2)cc1OC	24.2%	16.0%	4.4%	8.1%	-1.2%	13.3%	7.7%	-12.0%
Cc1ccc(C(=O)N/C(=C\c2ccc(Cl)cc2)C(=O)NCCCN2CCOCC2)cc1	?	-9.6%	0.7%	3.2%	-3.1%	11.1%	1.1%	-8.8%
CCCN(CCC)C(=O)C1CCN(c2cc(C)nc3c(-c4ccc(OC)c(OC)c4)c(C)nn23)CC1	-11.2%&-11.2%	-17.6%	?	?	-5.0%	-16.0%	3.1%	-28.5%
O=C(O)C1C(c2ccccc2)C(C(=O)N2CCOCC2)C1c1ccccc1 (stereo not given)	14.8%	0.8%	-1.4%	-5.5%	4.1%	-1.4%	-11.0%	-17.9%
CCc1ccc(OCC(=O)Nc2ccc(S(=O)(=O)N3CCOCC3)cc2)cc1	?	0.7%	.	.	.	6.5%	-5.9%	-24.5%
COc1ccccc1C(O)(C(=O)NNc1ccccc1C)c1ccccc1OC	-2.0%	10.7%	-7.5%	8.2%	1.0%	-0.4%	11.4%	-26.0%
Cc1cc2c3c(c1)C(C)CC(C)(C)N3C(=O)C2=O (stereo not given)	14.5%	-1.4%	.	-5.5%	.	-8.7%	8.8%	-10.1%
COC(=O)c1ccccc1NC(=O)CSc1nnc(-c2ccc(OC)cc2)n1C	-15.0%	25.5%	-10.1%	-6.4%	-0.8%	-8.3%	22.7%	-10.4%
O=C(Nc1cccc(F)c1)C1CCCN(S(=O)(=O)c2ccccc2)C1 (stereo not given)	?	21.7%	.	0.9%	.	-2.7%	-17.3%	?
